Compound activity: PubChem BioAssay, several laboratories
Beta2AR agonist = beta2AR agonists driving receptor internalization, primary screen, cell-based, FAP fluorogen, flow cytometry | Am2.2-beta2AR cells; reference of the scale not given here | hit rate 0.43% among 340,000 | Beta-2 adrenergic receptor (Homo sapiens), P07550 | AID 504454, 2011 | response, % (test concentration not listed);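 active = response above a set limit, near 3 SD of response in nonfluorescent compounds, cut at about 42% in these data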;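 also: stock transfer was 100 nL into about 11 µL; a reference agonist was the positive control; negative values mostly stem from fluorescent compounds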
Ecoli growth = E. coli growth inhibition, primary screen, OD600; Escherichia coli growth, 23 h; stronger effect = lower value; OD600 absorbance (test concentration not listed); hit rate 0.21% among 330,000;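 active = OD600 absorbance below the run mean of sample wells minus 3.6 SD, in any replicate, cut at about 0.56 in these data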;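 also: stock transfer was 300 nL into about 60 µL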
ALR inh = inhibitors of human ALR sulfhydryl oxidase, primary screen, biochemical, H2O2 detection, HRP-luminol luminescence, single point; hit rate 3.8% among 290,000; inhibition, % (concentration not given with the values); purified ALR, DTT oxidation;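 active = mean and each replicate at 75% or more; inconclusive = only one of the two met; inactive = neither met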;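 also: stock transfer was 7.5 nL into about 7.5 µL; 0% = neutral wells and 100% = wells with inactivated enzyme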
Target sequence (P55789 whole entry, looked up): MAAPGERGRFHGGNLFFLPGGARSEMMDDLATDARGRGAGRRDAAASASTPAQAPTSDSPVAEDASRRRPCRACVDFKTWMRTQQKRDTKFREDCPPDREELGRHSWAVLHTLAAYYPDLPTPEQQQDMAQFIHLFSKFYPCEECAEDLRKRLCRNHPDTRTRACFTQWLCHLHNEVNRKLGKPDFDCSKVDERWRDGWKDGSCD
HNF4A DNA FP = change in binding of human HNF4A to DNA, primary screen, biochemical, fluorescence polarization, FITC-DNA; Hepatocyte nuclear factor 4-alpha (Homo sapiens), P41235; 1 h; activity change, % at 10 µM; hit rate 0.3% among 360,000; AID 1224865, 2016; in the data active = activity change above about 30%, passing the limit was not always enough;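 also: controls were the assay level and a saturating level of protein; the project sought stronger binding though the title names inhibitors; some compounds called inactive have numbers as strong as hits; positive values seem to mean higher polarization but the record does not say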
Target sequence (P41235 whole entry, looked up): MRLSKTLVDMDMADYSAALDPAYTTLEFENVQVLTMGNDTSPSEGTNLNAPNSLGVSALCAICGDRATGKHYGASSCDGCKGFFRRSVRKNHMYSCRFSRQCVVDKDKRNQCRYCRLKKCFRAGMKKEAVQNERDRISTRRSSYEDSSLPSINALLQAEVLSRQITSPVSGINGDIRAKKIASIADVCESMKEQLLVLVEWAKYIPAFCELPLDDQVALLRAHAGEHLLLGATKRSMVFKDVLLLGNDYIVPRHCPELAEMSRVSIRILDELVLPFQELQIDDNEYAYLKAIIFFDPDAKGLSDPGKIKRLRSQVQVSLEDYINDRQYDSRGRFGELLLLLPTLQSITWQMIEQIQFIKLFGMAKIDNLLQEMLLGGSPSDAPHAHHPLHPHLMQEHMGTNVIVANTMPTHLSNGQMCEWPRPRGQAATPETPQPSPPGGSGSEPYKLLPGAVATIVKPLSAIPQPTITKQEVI
UCH37 DUB inh = inhibitors of human UCH37 deubiquitinase, primary screen, biochemical, Ub-AMC cleavage, fluorescence; Ubiquitin carboxyl-terminal hydrolase isozyme L5 (Homo sapiens), Q9Y5K5; purified proteasome/UCH37; inhibition, % (concentration not given with the values); hit rate 0.33% among 330,000; AID 588478, 2011;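 active = mean of two replicates above 20%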;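 also: 0% = compound-free wells with enzyme and 100% = wells lacking proteasome; stock transfer was 100 nL into about 20 µL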
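System: Proteasome-associated human UCH37 deubiquitinase; Input: 0.15 nM proteasome in added enzyme buffer; Also added: Ub-AMC substrate from 1 µM stock; Incubation: 30 min compound-proteasome preincubation then 25 min substrate reaction, room temperature; Detection: fluorescence, ex 355 nm, em 460 nm; Read-out: % inhibition of Ub-AMC cleavage fluorescence; Benchmarks: no-proteasome and no-compound wells.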
FGF22 binding = binders of human FGF22 protein, primary screen, FGF22 synaptogenesis inhibitor project, biophysical, thermal shift, single point. Fibroblast growth factor 22 (Homo sapiens), Q9HCT0. recombinant FGF22 thermal shift, SYPRO orange fluorescence; percent of sucrose octasulfate shift, DMSO zero. calls only at 9.99 µM. hit rate 1.5% among 340,000;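 active = melting point raised past a set limit in the mean and every replicate; inconclusive = no clear call; three in four hits are not shown here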
Target sequence (Q9HCT0 whole entry, looked up): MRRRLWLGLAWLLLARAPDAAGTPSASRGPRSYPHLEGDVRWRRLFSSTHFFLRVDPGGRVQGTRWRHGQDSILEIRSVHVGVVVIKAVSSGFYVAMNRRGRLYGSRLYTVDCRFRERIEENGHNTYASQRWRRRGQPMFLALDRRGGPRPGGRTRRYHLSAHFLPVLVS
rRNA inh HTS = reduced GFP signal of wild-type E. coli, primary screen, bacterial rRNA inhibitor project, GFP/RFP fluorescence, OD600, single point. E. coli WT GFP vs humanized-ribosome RFP mutants, 24 h; stronger effect = lower value; DMSO median 0, no signal -100. GFP signal change (wild-type ribosome), % (concentration not given with the values). hit rate 1.6% among 350,000. AID 720706, 2013;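 active = significant combined selectivity score with lowered wild-type GFP, culture density cut under 30%, mutant RFP and density less affected; inactive = any of these conditions unmet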; also: one replicate is shown; some compounds called inactive have numbers as strong as hits
rRNA inh HTS OD600 = recorded beside rRNA inh HTS, whose call it bears; OD600 change, %; measured here: OD600 growth;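 optical density of the mix in the first replicate; 0 = DMSO median and -100 = no signal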
rRNA inh HTS RFP = also measured in rRNA inh HTS; calls as there; RFP signal change, %; measured here: RFP humanized mutant strains;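 first replicate; 0 = DMSO median and -100 = no signal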
* hit, by the source's call; i = inactive; ? = inconclusive; . = no result given; & = joins results of further samples. An excerpt; rates above refer to the full screens.

SMILES | Beta2AR agonist | Ecoli growth | ALR inh | HNF4A DNA FP | UCH37 DUB inh | FGF22 binding | rRNA inh HTS | rRNA inh HTS OD600 | rRNA inh HTS RFP
O=C(O)CCN1c2cccc3cccc(c23)S1(=O)=O | 15 | 0.68 | . | 4.9 | -110 | i | 3 | 3 | 0.5
O=C(CN(Cc1ccc(Cl)cc1)S(=O)(=O)c1ccccc1)NCC1CCCO1 (configuration not stated) | 0 | 0.68 | 3 | 0.7 | -1.4 | i | 2 | -6 | -0.8
CS(=O)(=O)N(CC(=O)NCc1ccc2c(c1)OCO2)c1cccc(Cl)c1 | 6 | 0.63 | 2 | 3.1 | 2.3 | i | -5 | -2 | -0.5
CCCCCC(N)=O | 0 | 0.64 | 8 | 28 | 0.3 | i | 3 | 5 | 0.5
N#C/C(=C\c1cn(CC(=O)N2CCCC2)c2ccccc12)C(=O)NCc1ccc2c(c1)OCO2 | -7 | 0.71 | -9 | -0.4 | -0.2 | . | . | . | .
Cc1ccc(OCc2nnc(SCC(=O)c3ccccc3)n2-c2ccccc2)cc1 | -9 | 0.72 | 1 | -3.4 | 5.9 | . | . | . | .
CCNS(=O)(=O)c1ccc(CCC(=O)N2CCN(c3ccc(OC)cc3)CC2)cc1 | 2 | 0.65 | 53 | 2.1 | 4.3 | i | 14 | 4 | 3.1
CC(=O)NCc1ccc(S(=O)(=O)N2CCN(S(=O)(=O)c3ccc4ccccc4c3)CC2)cc1 | -1 | 0.65 | . | -0.4 | 0.0 | i | 10 | 14 | 3.1
O=C(NCc1ccc2c(c1)OCO2)C1CC(c2cccc(Br)c2)=NO1 (configuration not stated) | -3 | 0.74 | -7 | -0.4 | 1.0 | . | . | . | .
COc1cc(NC(=O)c2c(F)cccc2F)nc(OC)n1 | 7 | 0.69 | -29 | 1.3 | 1.8 | i | 3 | 2 | -7.3
COc1cc(C(N)=O)cc(Br)c1OC | 11 | 0.77 | -14 | -0.7 | -3.3 | . | . | . | .
N#Cc1ccc(Nc2nc(-c3ccccc3)cs2)cc1 | . | . | . | 2.7 | . | i | -25 | -45 | -3.9
N=c1sccn1CC(=O)Nc1ccc(S(=O)(=O)N2CCOCC2)cc1 | -1 | 0.72 | -1 | 2.1 | 0.9 | . | . | . | .
CN(CC(=O)Nc1ccc(F)c(F)c1F)C(=O)C1CCC1 | -3 | 0.7 | -1 | 3.0 | 5.5 | i | 12 | 13 | 4.7
COc1ccc(CCNC(=O)CN(C)S(=O)(=O)c2cccc3nsnc23)cc1OC | 5 | 0.7 | -8 | 0.8 | 7.0 | . | . | . | .
C#CCOCCOCCOCCNc1nc(N2CCOCC2)nc(N2CCN(C(=O)CCCCCCCCCCNC(=O)Cn3cc(CCCCCN)nn3)CC2)n1 | 5 | 0.69 | -52 | 4.3 | 0.3 | i | -3 | -8 | 21
CC1=CC(C)(C)Nc2ccc(OC(=O)c3cccnc3)cc21 | 11 | 0.7 | ? | 1.7 | -41 | . | 9 | 1 | 23
CC(=O)Nc1ccc(N(C(=O)c2ccco2)C(C(=O)NC2CCCC2)c2cccs2)cc1 (configuration not stated) | -2 | 0.72 | 16 | 3.6 | 0.5 | i | -2 | 11 | -3.3
O=C(COc1ccc(Cl)cc1Cl)NCCSc1ccc(Cl)cc1 | 14 | 0.77 | -17 | -1.0 | 0.1 | . | . | . | .
CCN(CC(=O)NCc1cccs1)S(=O)(=O)c1ccc(C(C)C)cc1 | -1 | 0.68 | . | 3.2 | -1.2 | . | . | . | .
Cc1noc(C)c1CSc1nnc2scc(-c3ccc(Cl)cc3)n12 | 40 | 0.72 | -6 | -2.0 | -0.9 | . | . | . | .
O=C(Oc1cccnc1)c1ccc([N+](=O)[O-])cc1Cl | -4 | 0.71 | 7 | -0.7 | 6.2 | i | 14 | 3 | 0.1
Nc1nc(Nc2cccc(Cl)c2)nc(NCCO)c1[N+](=O)[O-] | 12 | 0.67 | . | 0.9 | 9.2 | i | 5 | -8 | 23
COc1ccc2nc(-c3ccccc3)cc(C(=O)N3CCC3)c2c1 | 6 | 0.64 | -6 | 2.5 | i | i | -10 | -8 | -2.0
COc1ccc2c(c1OC)C(=O)N1c3ccccc3SC21 (configuration not stated) | -18 | 0.74 | -5 | -0.9 | -1.9 | . | . | . | .

Some of the entries so far, with tabs.
canonical_smiles	Beta2AR agonist	Ecoli growth	ALR inh	HNF4A DNA FP	UCH37 DUB inh	FGF22 binding	rRNA inh HTS	rRNA inh HTS OD600	rRNA inh HTS RFP
O=C(COc1ccc(Cl)cc1Cl)NCCSc1ccc(Cl)cc1	14	0.77	-17	-1.0	0.1	.	.	.	.
O=C(Oc1cccnc1)c1ccc([N+](=O)[O-])cc1Cl	-4	0.71	7	-0.7	6.2	i	14	3	0.1

New compounds follow
SMILES | Beta2AR agonist | Ecoli growth | ALR inh | HNF4A DNA FP | UCH37 DUB inh | FGF22 binding | rRNA inh HTS | rRNA inh HTS OD600 | rRNA inh HTS RFP
CCC(C)(C)NC(=O)C(c1ccc(C)cc1)N(Cc1cccs1)C(=O)c1ccc2c(c1)OCCO2 (configuration not stated) | 21 | 0.69 | -5 | 1.0 | 2.7 | . | . | . | .
COC(=O)C1=CN(c2ccc(OC)cc2)C=C(C(=O)OC)C1c1cccc(F)c1 | -7 | 0.7 | -7 | 3.3 | -196 | i | -5 | -3 | -3.6
CCOc1ccc(-c2nn(-c3ccccc3)cc2/C=C2\SC(=S)N(Cc3ccco3)C2=O)cc1 | 3 | 0.64 | -3 | 6.4 | 5.8 | . | 6 | -3 | -2.7
C/C(=N\NC(N)=S)c1ccc(Cl)s1 | -1 | . | 10 | -0.9 | . | i | -7 | -7 | -5.0
O=C(O)C1(c2ccccc2)CCN(S(=O)(=O)c2ccc(Br)cc2)CC1 | 7 | 0.73 | 2 | 3.1 | 1.5 | i | -19 | -9 | -5.2
Cn1c(Cn2c(=O)sc3ccccc32)nnc1SCC(=O)Nc1ccccc1 | -5 | 0.74 | -7 | 4.2 | 1.1 | i | 8 | 10 | -1.4
COCC(=O)N1CCC(Oc2ccc(C(=O)NCc3cc(C)no3)cc2)CC1 | 0 | 0.69 | -8 | -3.0 | 5.2 | i | 16 | 17 | 1.2
C=CCSc1n[nH]c(-c2ccc(OCCCC)cc2)n1 | -3 | 0.64 | 1 | -0.6 | 1.5 | i | 2 | 12 | -3.7
CCCN(CC(=O)Nc1ccc(F)c(F)c1F)C(=O)CCc1nc2ccccc2c(=O)[nH]1 | -1 | 0.72 | 0 | -2.0 | 4.8 | i | 2 | 6 | -2.1
CCCC[C@@H]1C=C(C(=O)O)[C@H](c2ccc(C#N)cc2)N1S(=O)(=O)c1ccc(C)cc1 | 5 | 0.68 | . | -0.5 | 1.9 | i | 4 | -5 | 5.0
CCOc1ccc(C(=O)C(CCC(CN(C)C)C(=O)c2ccc(OCC)cc2)CN(C)C)cc1 (configuration not stated) | 110* | 0.69 | . | 3.6 | 4.2 | . | . | . | .
CCC(C)NC(=O)CSc1nnc(-c2ccc(C(C)(C)C)cc2)n1C (configuration not stated) | -6 | 0.65 | -15 | -0.1 | 4.4 | . | . | . | .
COc1ccc(CNC(=O)CN(C)Cc2ccccc2F)cc1OC | 10 | 0.7 | -1 | -3.1 | 1.6 | i | -1 | 4 | -1.4
Cc1cn([C@H]2C[C@H](O)[C@@H](CCC(=O)NCCN3CCCCC3)O2)c(=O)[nH]c1=O | -5 | 0.73 | . | -0.8 | -0.8 | i | 10 | 10 | -0.6
Cc1noc(C(=O)Nc2cccnc2)c1Cl | -4 | 0.76 | -5 | -2.5 | 8.5 | i | 4 | 7 | 2.2
COCCNCCOCCOc1ccc(Cl)c(C)c1 | 6 | 0.69 | -5 | -1.2 | -1.4 | . | . | . | .
Cc1cc(C)cc(OCC(=O)N(C)CC(=O)Nc2ccc(N3CCOCC3)cc2)c1 | -5 | 0.71 | . | -2.4 | 2.8 | . | 6 | 14 | -3.9
NC(=O)CCn1ccc2ccccc21 | 10 | 0.69 | -23 | -0.8 | 3.4 | i | 3 | -4 | -1.9
Cn1cc(CCC(=O)N2CCCC(CCC(=O)NCc3ccc(F)c(F)c3)C2)cn1 (configuration not stated) | -5 | 0.67 | -2 | 4.6 | 2.9 | i | 6 | 11 | 2.6
COc1ccccc1/C=C/C(=O)OCC(=O)N1CCCCC1 | -4 | 0.72 | -5 | -4.3 | -27 | i | -3 | -8 | -3.4
CCCOc1ccc2cc(C(=O)NCc3ccccc3)c(=O)oc2c1 | -9 | 0.69 | -4 | 0.9 | -283 | i | 8 | 0 | -1.2
O=C(Cc1cccc(NC(=O)C2CCN(S(=O)(=O)c3cccc([N+](=O)[O-])c3)CC2)c1)Nc1cccc(C(=O)N2CCOCC2)c1 | 3 | 0.7 | . | -3.6 | 4.7 | i | -5 | 3 | -2.7
O=C(NCCC1=CCCCC1)C1CCC(CNc2nc(=S)[nH]c3ccccc23)CC1 (configuration not stated) | 1 | 0.7 | -2 | -0.6 | 0.1 | i | 14 | 7 | 2.1
C[C@@H]1CN([C@@H](C)CO)C(=O)CCCn2nncc2CO[C@@H]1CN(C)C(=O)Nc1cccc2ccccc12 | . | . | . | 1.8 | . | i | -8&0 | 4&0 | 4.4&0.4
Cc1nc(-c2ccccc2OC(F)(F)F)[nH]c(=O)c1Cl | 7 | 0.62 | 1 | 0.6 | 2.6 | i | 1 | 5 | 1.1

Next part.
SMILES | Beta2AR agonist | Ecoli growth | ALR inh | HNF4A DNA FP | UCH37 DUB inh | FGF22 binding | rRNA inh HTS | rRNA inh HTS OD600 | rRNA inh HTS RFP
Cc1nn(Cc2ccc(C(=O)N3CCN(C(=O)c4ccco4)CC3)o2)c(C)c1[N+](=O)[O-] | -6 | 0.67 | -15 | -0.3 | 1.7 | i | 7 | 15 | 1.4
O=C(O)CCC(=O)OCC1CCCO1 (configuration not stated) | -2 | 0.74 | . | -2.3 | 5.1 | . | . | . | .
CCn1cc(S(=O)(=O)N2CCc3ccccc3C2)cn1 | -2 | 0.66 | -3 | 1.7 | 4.9 | i | 14 | 7 | 4.1
COc1cc(OC)cc(C(=O)N[C@H](C(=O)Nc2ccc(S(=O)(=O)N(C)C)cc2)C(C)C)c1 | -6 | 0.67 | -16 | -1.3 | 2.5 | i | -13 | -11 | 3.3
CN(C)S(=O)(=O)c1cccc(C(=O)NCCCn2ccnc2)c1 | 0 | 0.72 | -3 | 5.0 | 2.6 | i | 3 | 4 | -2.3
CCc1ccc(N2CC34C=CC(O3)C(C(=O)OC)C4C2=O)cc1 (configuration not stated) | 9 | 0.69 | -3 | 0.9 | 1.3 | i | 3 | 2 | 1.0
OCCNc1nc(N2CCCC2)nc(N2CCCC2)n1 | 0 | 0.74 | -5 | -0.3 | -1.5 | . | . | . | .
Cn1nc(-c2ccc(OCC(=O)NCC3CCCO3)cc2)c2ccccc2c1=O (configuration not stated) | 0 | 0.79 | 1 | -3.7 | 0.7 | . | . | . | .
Cc1nnc(SCCn2c(N3CCN(Cc4ccccc4)CC3)nc3c2c(=O)[nH]c(=O)n3C)s1 | -8 | 0.69 | 2 | -4.2 | 2.4 | . | -3 | 13 | -0.7
COc1ccc(C2N(Cc3ccccc3)CC(=O)N2/N=C(\C)c2ccccc2)cc1 (configuration not stated) | 18 | . | -28 | 0.5 | . | . | . | . | .
